Screens (PubChem)
Rango dissoc inh – qHTS Assay for Inhibitors of RanGTP induced Rango (Ran-regulated importin-beta cargo) - Importin beta complex dissociation. Biochemical FRET Rango-importin beta, RanGTP-induced dissociation. Potency, µM (highest dose often 46.1 µM), for inactives: at the top dose activity change, negative = inhibition. 340,000 compounds, 0.071% hits. Snurportin-1 (Homo sapiens) + GTP-binding nuclear protein Ran (Homo sapiens) + Importin …; active means falling FRET ratio curve, often poorly fitted, with flat reads before Ran was added; inconclusive means other falling curves, or compound fluorescence or quenching; inactive means flat or rising ratio curve;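 also: potency is read from the fitted curve at half-maximal effect; % of control where 0% means no effect; nearly all actives have a fitted effect of over 45% in size; -100% = wells without RanGTP and RCC1; the record marks most hits as doubtful in a second field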
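Rango/importin beta premix (0.1/0.25 uM final), PBS + 1 mM DTT + 0.02% Tween-20 + 0.1% BSA; cpd 5 min RT; FRET pre-read; + RanGTP-RCC1 (0.6 uM Ran, 2 mM GTP, 0.2 uM RCC1); 45 min RT; FRET post-read, ex 430, em 486/530 nm.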
Rango complex inh – qHTS Assay for Inhibitors of Rango (Ran-regulated importin-beta cargo) - Importin beta complex formation; Importin subunit beta-1 (Homo sapiens), Q14974; Rango CFP/YFP FRET sensor + importin beta, 45 min; Potency, µM (highest dose often 92.2 µM), inactives show at the top dose inhibition of complex formation; 340,000 compounds, 0.031% hits; active = rising FRET ratio curve, often small or poorly fitted; inconclusive = mostly compound fluorescence or quenching in the first reads; inactive = flat curves in all reads;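 also: potency is read from the fitted curve at half-maximal effect; 0% = DMSO wells and 100% = buffer wells lacking importin beta; nearly all actives have a fitted effect of over 15% in size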
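Inhibition scored from the CFP 486 nm/YFP 530 nm FRET ratio 45 min after adding 0.125 microM importin beta to 50 nM Rango biosensor preincubated 5 min with compound (room temperature, PBS with DTT, Tween-20, BSA). No-importin wells as positive control.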
miR-21 FLuc – qHTS Assay for Modulators of miRNAs and/orActivators of miR-21; HeLa miR-21 FLuc reporter, luciferase, 48 h; Potency, µM (top dose mostly 38.3 µM), inactives show at the highest dose reporter change, positive = more light; 340,000 tested, under 10 active; AID 2288, 2010; active = well fitted rising curve with a large enough effect; inconclusive = small, poorly fitted or top-dose-only effect; inactive = no such curve, though single readings can be large or run the other way;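 also: % of control where 0% means no effect; miR-21 action dims this reporter so a rising signal means less miR-21 action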
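Using DMEM plus 10% FBS, HeLa miR-21-FLuc cells are incubated with test compounds (final up to about 40uM) for 48 hours; firefly luciferase signal is then imaged following reagent-mediated lysis.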
GLA inh pH 4.5 – qHTS Assay for Inhibitors of Human alpha-Galactosidase at pH 4.5 | Alpha-galactosidase A (Homo sapiens), P06280 | purified enzyme, 4-MU-alpha-Gal fluorescence, pH 4.5 | activity change, negative = inhibition, % at 105 µM | 230,000 tested, under 10 active | AID 1467, 2008; inconclusive = small, poorly fitted or top-dose-only inhibition, or a rising curve; inactive = flat fitted curve, though single readings scatter; no compound was filed as active;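 also: 0% = full activity with enzyme and -100% = basal without enzyme; dose as in the result columns while the protocol names 77 µM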
Target sequence (P06280 whole entry, looked up): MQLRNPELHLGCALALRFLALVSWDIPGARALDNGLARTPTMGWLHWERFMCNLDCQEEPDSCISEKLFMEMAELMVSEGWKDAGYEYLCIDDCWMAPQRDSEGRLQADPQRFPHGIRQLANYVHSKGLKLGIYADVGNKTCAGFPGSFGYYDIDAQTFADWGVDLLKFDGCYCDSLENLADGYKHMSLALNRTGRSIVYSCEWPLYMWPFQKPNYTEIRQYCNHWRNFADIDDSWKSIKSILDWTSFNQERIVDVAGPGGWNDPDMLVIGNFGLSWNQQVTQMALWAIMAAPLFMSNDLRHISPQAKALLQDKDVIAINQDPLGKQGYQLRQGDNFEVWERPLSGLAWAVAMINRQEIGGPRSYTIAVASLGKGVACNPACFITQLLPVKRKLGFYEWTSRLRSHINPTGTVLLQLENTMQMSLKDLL
Starred values were filed as active, the others as inactive; ? = inconclusive; · = no result given.

Short keys: A = Rango dissoc inh; B = Rango complex inh; C = miR-21 FLuc; D = GLA inh pH 4.5
structure: CC(C)OC(=O)CC(=O)c1sc2nc3c(cc2c1N)CN(C)CC3
  A: ?	B: ?	C: 2.2%	D: -2.3

structure: CCOc1ccc(S(=O)(=O)NCCC(=O)NCc2cccnc2)cc1
  A: 19.1%	B: -4.3%	C: ·	D: ·

structure: CCSc1nnc(NC(=O)CSc2nnc(Cc3cccn3C)n2CCc2ccccc2)s1
  A: -1.1%	B: -0.9%	C: -3.6%	D: 2.8

structure: CCOC(=O)c1sc(NC(=O)CSc2ncccn2)c(C#N)c1C
  A: -4.5%	B: -5.2%	C: -1.5%	D: -7.8

structure: O=C(NCCCSc1ccccc1)c1cnc(Cl)c(Cl)c1
  A: -7.3%	B: 3.3%	C: -0.9%	D: ·

structure: O=C1CC(C(=O)N2CCCc3ccccc32)CN1c1ccc(F)cc1 (stereo not given)
  A: -12.6%	B: -0.4%	C: -22.5%	D: ·

structure: CCn1c(SCC(=O)N/N=C/C(C)=C\c2ccco2)nnc1-c1ccccc1
  A: -13.8%	B: -1.8%	C: -2.7%	D: -9.5

structure: O=S(=O)(c1ccc2ccccc2c1)N(CC(O)COCc1ccco1)c1ccccc1 (stereo not given)
  A: 1.0%	B: -2.8%	C: -3.6%	D: -1.9

structure: C=CC#CC[N+]1(CC#Cc2ccccc2)CCOCC1
  A: 1.0%	B: 4.0%	C: 0.1%	D: 0.5

structure: Cc1cc(C)c2nc3c(c(C(=O)O)c2c1)CCC3
  A: -2.1%	B: 4.2%	C: -5.7%	D: 3.2

structure: CCOc1ccc(NC(=O)CCCN2C(=S)NC(C)(C)CC2C)cc1 (stereo not given)
  A: -8.1%	B: -3.8%	C: -12.8%	D: 1.2

structure: COc1ccc(OC)c(NS(=O)(=O)Cc2ccccc2)c1
  A: ·	B: ·	C: 1.5%	D: -22.8

structure: Cc1cccc2cc(CN(Cc3ccco3)C(=O)Nc3cccc(C#N)c3)c(Cl)nc12
  A: -15.0%	B: -0.3%	C: 20.4%	D: -4.9

structure: CN(CCCC(=O)N1CCN(c2ncccn2)CC1)S(=O)(=O)c1ccc(F)cc1
  A: 0.2%	B: -1.6%	C: ·	D: ·

structure: Cc1ccc(-n2nnnc2SCC(=O)N(CC(C)C)c2c(N)n(CC(C)C)c(=O)[nH]c2=O)cc1
  A: 2.0%	B: 6.4%	C: -2.5%	D: -12.6

structure: COc1cccc(NC(=O)CCCOc2cc(=O)n(C)c3ccccc23)c1
  A: 3.5%	B: -1.8%	C: 4.8%	D: -2.9

structure: COc1cc(CC(=O)N2CCN(S(=O)(=O)c3ccc(C)cc3)CC2)cc(OC)c1OC
  A: 18.5%	B: -2.0%	C: ·	D: ·

structure: CN(CC(=O)N1CC=C(c2ccccc2)CC1)S(=O)(=O)c1cnc[nH]1
  A: -1.2%	B: 0.8%	C: -6.9%	D: 8.8

structure: O=C(Nc1nc(-c2ccccc2)cs1)C1CCCN(S(=O)(=O)c2cccc([N+](=O)[O-])c2)C1 (stereo not given)
  A: -16.6%	B: -0.1%	C: -1.9%	D: -11.5

structure: CN(C)S(=O)(=O)c1ccc(N2CCCC2)c(C(=O)Nc2ccccc2OC(F)F)c1
  A: 10.6%	B: 2.8%	C: -3.3%	D: 1.3

structure: CCOc1ccc(N2CC(C(=O)Nc3cccc(C(=O)NC4CC4)c3)CC2=O)cc1 (stereo not given)
  A: -3.9%	B: 0.4%	C: ·	D: ·

structure: COc1ccc(NS(=O)(=O)c2ccc(N)c(C(=O)O)c2)cc1
  A: 7.9%	B: 2.4%	C: -2.1%	D: -2.7

structure: CN(C)S(=O)(=O)c1cccc(NC(=S)NC23CC4CC(CC(C4)C2)C3)c1
  A: -11.1%	B: -0.2%	C: 6.7%	D: ·

structure: CN(C(=O)COC(=O)CNC(=O)C12CC3CC(CC(C3)C1)C2)c1ccccc1
  A: 9.1%	B: 5.3%	C: 0.4%	D: ·

structure: CCc1noc(C)c1C(=O)N(C)CC(=O)Nc1ccccc1C(F)(F)F
  A: 11.1%	B: -3.3%	C: ·	D: ·

Retrieved one by one from the list above (three):
Short keys: A = Rango dissoc inh; B = Rango complex inh; C = miR-21 FLuc; D = GLA inh pH 4.5
structure: CN(C)S(=O)(=O)c1ccc(N2CCCC2)c(C(=O)Nc2ccccc2OC(F)F)c1
  A: 10.6%	B: 2.8%	C: -3.3%	D: 1.3

structure: CCOc1ccc(N2CC(C(=O)Nc3cccc(C(=O)NC4CC4)c3)CC2=O)cc1 (stereo not given)
  A: -3.9%	B: 0.4%	C: ·	D: ·

structure: O=C(Nc1nc(-c2ccccc2)cs1)C1CCCN(S(=O)(=O)c2cccc([N+](=O)[O-])c2)C1 (stereo not given)
  A: -16.6%	B: -0.1%	C: -1.9%	D: -11.5

Back to the main list; the three compounds before the break are reprinted first.
Short keys: A = Rango dissoc inh; B = Rango complex inh; C = miR-21 FLuc; D = GLA inh pH 4.5
structure: CN(C)S(=O)(=O)c1cccc(NC(=S)NC23CC4CC(CC(C4)C2)C3)c1
  A: -11.1%	B: -0.2%	C: 6.7%	D: ·

structure: CN(C(=O)COC(=O)CNC(=O)C12CC3CC(CC(C3)C1)C2)c1ccccc1
  A: 9.1%	B: 5.3%	C: 0.4%	D: ·

structure: CCc1noc(C)c1C(=O)N(C)CC(=O)Nc1ccccc1C(F)(F)F
  A: 11.1%	B: -3.3%	C: ·	D: ·

structure: CC(C)(C)c1ccc(C(=O)c2cn[nH]c2-c2ccccc2O)cc1
  A: 14.9%	B: 6.3%	C: -50.0%	D: ·

structure: CCn1c(CNC(=O)COc2ccc(C(C)C)cc2)nnc1SCC(=O)Nc1ccccc1
  A: -7.6%	B: -1.5%	C: 11.3%	D: -19.7

structure: CCc1ccccc1NC(=O)Cn1ccn(-c2ccc(OC)cc2)c(=O)c1=O
  A: ?	B: 1.0%	C: 8.3%	D: ·

structure: CC(C(=O)OCn1nnc2ccccc2c1=O)N1C(=O)c2ccccc2C1=O (stereo not given)
  A: ?	B: ?	C: -0.6%	D: 2.8

structure: COc1ccc(CNC(=O)CCC(=O)Nc2cccnc2)cc1
  A: -10.3%	B: -0.8%	C: 2.8%	D: ·

structure: Clc1cccc(NCc2cn3cccnc3n2)c1
  A: -1.5%	B: 0.1%	C: -34.2%	D: -4.2

structure: COc1cccc(/C(N)=N/OC(=O)Cc2ccccc2[N+](=O)[O-])c1
  A: 14.3%	B: -3.7%	C: -62.2%	D: -4.9

structure: Cc1c(Cl)cccc1NC(=S)N1CCN(c2ccccn2)CC1
  A: 10.5%	B: 0.8%	C: 3.1%	D: 0.7

structure: COCNc1nc(OCC#N)nc(N(C)C)n1
  A: -10.0%	B: 6.1%	C: 1.2%	D: -1.8

structure: O=S(=O)(c1cccc(-c2csc(N/N=C/c3ccco3)n2)c1)N1CCOCC1
  A: -12.1%	B: -3.8%	C: 23.1%	D: -9.7

structure: COc1ccc(OC)c(CN2CCC(N3CCC(C(=O)NC4CC4)CC3)CC2)c1
  A: 15.7%	B: 0.7%	C: -0.9%	D: ·

structure: Cc1cc(C)cc(NC(=S)NCCSc2ccc(Cl)cc2)c1
  A: -0.2%	B: -3.5%	C: -0.1%	D: -7.6

structure: Cn1ncc2c(Nc3cccc(C(=O)O)c3)ncnc21
  A: 3.1%	B: 0.2%	C: -0.4%	D: -2.7

structure: O=C(Nc1ccccc1)N1CCN(S(=O)(=O)c2ccccc2)CC1
  A: 18.1%	B: 2.2%	C: -2.0%	D: -7.0

structure: N#Cc1nc(-c2ccco2)oc1N1CCC(C(N)=O)CC1
  A: 2.8%	B: 3.5%	C: -13.7%	D: -1.5

structure: COc1cccc(N(CC(=O)NC(C)c2ccccc2)S(C)(=O)=O)c1 (stereo not given)
  A: -11.3%	B: -2.8%	C: 0.2%	D: -6.8

structure: Cc1cc(SCC(=O)NC(=O)NCc2ccco2)nc2c(C)cccc12
  A: -6.6%	B: 0.6%	C: -7.9%	D: 4.0

structure: COc1ccc2c(c1)[C@H]1[C@H](CO2)[C@H](c2ccccc2)[C@]2(C)C(=O)Nc3cc(F)ccc3C(=O)N12
  A: -12.0%	B: ?	C: ·	D: ·

structure: CC(Sc1nnc(C2CC2)n1C1CC1)C(=O)c1ccc(Br)cc1 (stereo not given)
  A: 3.8%	B: 0.2%	C: ·	D: ·

structure: CCCCCCCC(=O)NNC(=O)c1c(O)c2ccccc2n(CCC)c1=O
  A: -0.1%	B: 0.8%	C: 3.9%	D: 1.4

structure: CCOC(=O)c1cc(-c2ccccc2)nn1Cc1cc(C)no1
  A: 0.8%	B: -2.3%	C: ·	D: ·

structure: CN1C(=O)C2(OCCCO2)c2ccccc21
  A: 8.7%	B: 2.3%	C: 0.5%	D: ·

structure: Cn1c(=O)c2c(nc(N3CCOCC3)n2CCc2ccccc2)n(C)c1=O
  A: 4.2%	B: -2.9%	C: -7.5%	D: 0.6

structure: CCN1CCN(c2ccc(NC(=O)c3ccco3)cc2Cl)CC1
  A: 11.4%	B: 0.1%	C: -60.4%	D: ·

structure: O=C(/C=C/c1ccc(Br)o1)OCc1ccccc1
  A: 7.2%	B: -0.5%	C: -8.0%	D: 4.6

Next section
Short keys: A = Rango dissoc inh; B = Rango complex inh; C = miR-21 FLuc; D = GLA inh pH 4.5
structure: O=C(OCn1nnc2ccccc2c1=O)C1COc2ccccc2O1 (stereo not given)
  A: -8.8%	B: -0.3%	C: -8.2%	D: 1.9

structure: Fc1c(F)c(F)c(N/N=C/c2c[nH]c3ccccc23)c(F)c1F
  A: 3.2%	B: -4.7%	C: 1.2%	D: -7.9

structure: CCOC(=O)c1ccc(NC(=S)NC(=O)COc2ccccc2)cc1
  A: -16.4%	B: -4.7%	C: 3.8%	D: -2.5

structure: Oc1ccc(-c2nccc(-c3ccc(Cl)cc3Cl)n2)cc1
  A: -11.3%	B: 9.7%	C: -20.0%	D: -7.7

structure: Cc1ccc(NC(=O)Nn2cnnc2)cc1
  A: 6.8%	B: 0.5%	C: -1.2%	D: ·

structure: COc1ccc(C2N=C(N)N=C(N)N2c2ccccc2)cc1OC (stereo not given)
  A: 0.0%	B: 1.3%	C: 1.3%	D: -1.2

structure: O=C1c2ccccc2C(=O)N1CCCON1C(=O)c2ccccc2C1=O
  A: -12.5%	B: 2.7%	C: -1.5%	D: 5.1

structure: N#CC1=C(N)OC2=C(C(=O)CCC2)C1c1ccc(OC(=O)N2CCOCC2)cc1 (stereo not given)
  A: -2.0%	B: -3.8%	C: -7.3%	D: 4.4

structure: CCc1ccc(OCC(=O)Nc2cc(S(=O)(=O)CC)ccc2O)cc1
  A: 6.3%	B: 0.3%	C: -9.3%	D: -1.8

structure: O=C(NCc1ccco1)C1CCCN1C(=O)Nc1ccc(Br)cc1 (stereo not given)
  A: -13.9%	B: -0.2%	C: 0.3%	D: ·

structure: CCOc1ccc(C(=O)Nn2cnnc2)cc1
  A: -12.5%	B: -3.9%	C: 0.1%	D: -7.3

structure: CC(C)(C)c1ccc(/C=N/Nc2nncn2N)cc1
  A: 12.6%	B: 1.0%	C: -17.8%	D: ·

structure: O=C(NC(N1CCCCCC1)C(Cl)(Cl)Cl)c1ccccc1Cl (stereo not given)
  A: -7.4%	B: 0.8%	C: -7.5%	D: 1.3

structure: O=C(CC1SC(N2CCCCC2)=NC1=O)Nc1cccc(C(=O)N2CCCC(C(F)(F)F)C2)c1 (stereo not given)
  A: -1.1%	B: -1.9%	C: ·	D: ·

structure: Cc1cccc(C(=O)NNS(=O)(=O)c2ccc(F)cc2)c1O
  A: 0.1%	B: 1.2%	C: 1.6%	D: ·

structure: COc1cc2c(cc1NC(=S)Nc1cccc(C(F)(F)F)c1)oc1ccccc12
  A: -1.6%	B: 3.1%	C: -4.5%	D: -0.3

structure: COCCN(Cc1cc2ccc(C)cc2[nH]c1=O)S(=O)(=O)c1ccccc1
  A: 5.0%	B: 0.2%	C: -2.5%	D: ·

structure: COc1ccccc1-c1cc(C(F)(F)F)nc(N2CCN(c3ccc(F)cc3)CC2)n1
  A: 5.8%	B: -0.1%	C: -1.6%	D: -10.3

The list is partial (hit frequency here may not be typical).
